AF4-AF9 inh = inhibitors of AF4 peptide binding to AF9, primary screen, biochemical, AlphaScreen, biotin-AF4 peptide, FLAG-AF9, single point; Protein AF-9 (Homo sapiens), P42568; inhibition, % at 10 µM; actives 0.47% (n = 350,000); AID 651704, 2012;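 active = every replicate reaching a set inhibition limit, whatever the replicate mean, cut at about 25% in these data; inconclusive = mean inhibition reaches that limit but some replicates miss it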;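 also: 0% = plate neutral control median and 100% = total signal loss; the record names both 10 and 1 µM as test concentration; the first replicate is given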
Target sequence (P42568 whole entry, looked up): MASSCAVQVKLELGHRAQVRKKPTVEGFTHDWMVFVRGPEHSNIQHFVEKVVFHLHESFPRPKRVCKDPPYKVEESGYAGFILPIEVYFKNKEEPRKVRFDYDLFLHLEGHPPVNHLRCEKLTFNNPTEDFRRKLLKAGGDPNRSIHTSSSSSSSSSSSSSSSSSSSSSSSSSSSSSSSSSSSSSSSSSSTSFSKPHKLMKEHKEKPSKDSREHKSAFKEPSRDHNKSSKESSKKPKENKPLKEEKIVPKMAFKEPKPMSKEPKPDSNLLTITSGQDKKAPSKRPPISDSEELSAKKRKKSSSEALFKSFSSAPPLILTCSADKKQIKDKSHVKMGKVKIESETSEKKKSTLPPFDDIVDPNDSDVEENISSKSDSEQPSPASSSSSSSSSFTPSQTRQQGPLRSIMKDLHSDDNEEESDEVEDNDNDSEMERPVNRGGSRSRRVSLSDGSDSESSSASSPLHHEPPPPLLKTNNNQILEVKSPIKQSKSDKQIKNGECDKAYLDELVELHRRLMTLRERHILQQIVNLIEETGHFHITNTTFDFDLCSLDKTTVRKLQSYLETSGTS
T cruzi repl = inhibitors of intracellular T. cruzi growth, primary screen, luminescence, NIH3T3 host cells; T. cruzi beta-gal in NIH3T3, 90 h; inhibition, % (test concentration not listed); actives 1.4% (n = 300,000); AID 1885, 2009;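 active = mean inhibition across valid replicates above about 55%, limit read from the data; inconclusive = mean below that limit but half or more replicates reach it; inactive = mean below it, under half of replicates reach it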;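 also: signal also drops with host cell toxicity which is not excluded here; 0% = plate median of DMSO wells and 100% = zero luminescence signal; higher percent means less beta-gal luminescence so fewer parasites; stock transfer was 50 nL into about 50 µL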
FGF22 binding = binders of human FGF22 protein, primary screen, FGF22 synaptogenesis inhibitor project, biophysical, thermal shift, single point | Fibroblast growth factor 22 (Homo sapiens), Q9HCT0 | recombinant FGF22 thermal shift, SYPRO orange fluorescence; percent of sucrose octasulfate shift, DMSO zero | calls only at 9.99 µM | actives 1.5% (n = 340,000) | AID 651658, 2012;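 active = melting point raised past a set limit in the mean and every replicate; inconclusive = no clear call; three in four hits are not shown here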
Target sequence (Q9HCT0 whole entry, looked up): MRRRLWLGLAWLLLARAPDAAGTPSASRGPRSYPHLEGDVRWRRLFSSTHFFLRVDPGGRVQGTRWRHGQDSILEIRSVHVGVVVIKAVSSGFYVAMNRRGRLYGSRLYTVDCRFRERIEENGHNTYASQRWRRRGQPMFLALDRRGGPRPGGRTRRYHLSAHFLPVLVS
Ecoli rRNA inh = reduced GFP signal of wild-type E. coli, primary screen, bacterial rRNA inhibitor project, GFP/RFP fluorescence, OD600, single point. E. coli WT GFP vs humanized-ribosome RFP mutants, 24 h; stronger effect = lower value; DMSO median 0, no signal -100. GFP signal change (wild-type ribosome), % (concentration not given with the values). actives 1.6% (n = 350,000). AID 720706, 2013;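 active = significant combined selectivity score with lowered wild-type GFP, culture density cut under 30%, mutant RFP and density less affected; inactive = any of these conditions unmet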; also: one replicate is shown; some compounds called inactive have numbers as strong as hits
Calb FLC = C. albicans growth inhibition with fluconazole, primary screen, CaCi-2 strain, Alamar Blue fluorescence; C. albicans CaCi-2 (fluconazole-resistant clinical isolate) + fluconazole, 48 h; growth inhibition, % (test concentration not listed); actives 0.57% (n = 300,000);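 active = most replicates above 75%; inconclusive = exactly half above 75%; inactive = most below 75%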;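 also: all wells also contain fluconazole at 8 µg/ml as a sub-toxic cotreatment; 0% = median of DMSO wells and 100% = median of geldanamycin control wells; wells of about 8 µL received 7.5 nL stock; the first replicate is given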
ALR H2O2 inh = inhibitors of human ALR sulfhydryl oxidase, primary screen, biochemical, H2O2 detection, HRP-luminol luminescence, single point | FAD-linked sulfhydryl oxidase ALR (Homo sapiens), P55789 | purified ALR, DTT oxidation | inhibition, % (concentration not given with the values) | actives 3.8% (n = 290,000);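 active = mean and each replicate at 75% or more; inconclusive = only one of the two met; inactive = neither met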;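 also: stock transfer was 7.5 nL into about 7.5 µL; 0% = neutral wells and 100% = wells with inactivated enzyme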
Target sequence (P55789 whole entry, looked up): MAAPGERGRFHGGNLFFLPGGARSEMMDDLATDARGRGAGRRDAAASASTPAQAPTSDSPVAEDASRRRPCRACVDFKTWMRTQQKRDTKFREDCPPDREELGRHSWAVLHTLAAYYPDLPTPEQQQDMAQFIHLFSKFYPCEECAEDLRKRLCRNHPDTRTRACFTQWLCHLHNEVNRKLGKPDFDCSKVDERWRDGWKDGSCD
RanGTP-Impb inh = inhibitors of RanGTP-importin-beta interaction, primary screen, biochemical, FRET, CFP-Ran, YFP-importin-beta, homogeneous. inhibition, % (concentration not given with the values). AID 2216, 2009. actives 1.1% (n = 300,000). cell-free CFP-Ran/YFP-importin-beta FRET ratio. Ran GTPase (GTP-bound) - importin-beta complex;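 active = most replicates above 15%; inconclusive = exactly half above 15%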;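 also: 0% = DMSO wells and 100% = Ran loaded with GDP instead of GTP; wells of about 40 µL received 100 nL stock; the first replicate is given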
Beta cell apopt = inhibitors of cytokine-induced beta cell apoptosis, primary screen, luminescence. INS-1E cytokine-induced death, ATP luminescence, 48 h; percent of positive-control rescue, neutral wells zero. protection from apoptosis, % (no concentration beside the values). actives 0.8% (n = 300,000);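 active = all replicates at 75% or more, or half of them and the mean; inconclusive = half reach 75% but not the mean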;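 also: 0% = cytokine-treated negative control wells and 100% = positive control rescue; higher means more ATP so stronger rescue from cytokine killing; wells of about 40 µL received 100 nL stock; the first replicate is given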
Ecoli rRNA inh OD600 = recorded beside Ecoli rRNA inh, whose call it bears; OD600 change, %; measured here: OD600 growth;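 optical density of the mix in the first replicate; 0 = DMSO median and -100 = no signal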
Ecoli rRNA inh RFP = second read-out of Ecoli rRNA inh, no call of its own (marks repeat the call); RFP signal change, %; measured here: RFP humanized mutant strains;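 first replicate; 0 = DMSO median and -100 = no signal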
* hit, by the source's call; i = inactive; ? = inconclusive; . = no result given; & = joins results of further samples. Only part of the results is shown. The share of hits here may be higher or lower than overall.

SMILES | AF4-AF9 inh | T cruzi repl | FGF22 binding | Ecoli rRNA inh | Ecoli rRNA inh OD600 | Ecoli rRNA inh RFP | Calb FLC | ALR H2O2 inh | RanGTP-Impb inh | Beta cell apopt
CC(C(=O)Nc1ccc(O)cc1C(=O)O)N1C(=O)/C(=C\c2cccs2)SC1=S (stereo not given) | 8.9 | -3.9 | i | -4.6 | -6.1 | 3.8 | -2.6 | 87.3* | 0.9 | -0.1
COc1ccccc1/C=N/OC(=O)c1ccc(F)cc1 | 0.6 | -5.3 | i | 20.8 | 20.5 | 2.3 | 0.0 | -1.0 | -4.6 | -6.5
O=C(COC(=O)C1CC(=O)N(Cc2ccccc2)C1)Nc1ccc(Cl)cc1F (stereo not given) | -0.4 | -11.2 | i | 5.8 | 7.4 | -3.4 | 13.8 | . | ? | -9.0
CN1C(=O)c2ccc(NC(=O)CCS(=O)(=O)c3ccccc3)cc2C1=O | -4.4 | -10.7 | i | 10.3 | 12.1 | 2.8 | 10.8 | 0.5 | 0.3 | -0.8
O=C(NCC1CC1)[C@@H]1C[C@H]1[C@@H](NP(=O)(c1ccccc1)c1ccccc1)c1ccccc1 | -1.0 | -6.4 | i | 1.0 | 9.8 | -1.4 | 5.3 | -4.4 | -1.4 | -0.2
CCOc1cc(Br)c(CC(=O)NC2CCCCCC2)cc1OCC | -2.7 | 9.8 | i | 5.7 | 3.1 | -1.4 | -0.3 | . | 0.0 | -3.8
CCc1ccccc1NC(=S)N1CCN(c2cccc(OC)c2)CC1 | 1.3 | -10.9 | i | 10.2 | 5.2 | 3.1 | 2.4 | 5.4 | 3.2 | .
COc1ccc(-c2cc(=O)oc3cc(OC(=O)C4CCCCC4)c(Cl)cc23)cc1 | -2.6 | 21.5 | . | 6.8 | 2.7 | 2.2 | 61.8 | -4.0 | 20.7* | -9.8
COc1ccc(CCN2C(=NC(=O)CC(C)C)SC3CS(=O)(=O)CC32)cc1OC (stereo not given) | 1.3 | 1.4 | i | . | . | . | -7.2 | -1.0 | 2.0 | 1.0
Cc1cccc(Nc2nc3c(s2)CCCC3)c1 | . | 33.1 | . | . | . | . | -1.6 | 96.2* | -0.3 | 3.2
CCOc1ccc(N2C(=O)/C(=C/c3cccs3)N(CC(=O)OC)C2=S)cc1 | . | 1.3 | . | . | . | . | 9.0 | -6.7 | -3.2 | 4.2
C=CCNC(=O)/C=C/c1c(F)cccc1Cl | -1.0 | -9.4 | i | 5.2 | 7.4 | -1.0 | 1.2 | 1.2 | 0.8 | 1.1
O=C(CCNS(=O)(=O)c1cccc2nonc12)NC1CCCCC1 | -0.4 | -1.2 | i | 20.8 | 23.4 | -0.2 | -15.7 | -1.6 | 3.3 | -2.7
Cc1ccc2nc(N3C(=O)C(O)=C(C(=O)c4ccco4)C3c3cccs3)sc2c1 (stereo not given) | . | -27.3 | . | . | . | . | 55.7 | -0.5 | 5.3 | -1.1
CS(=O)(=O)N(CCc1ccccc1)CC(=O)N1CCN(Cc2ccccc2)CC1 | . | -3.6 | . | . | . | . | -5.8 | 0.0 | -2.3 | -4.5
Cn1cc(/C=N/n2cnc3scc(-c4ccccc4)c3c2=O)c2ccccc21 | . | -17.8 | . | . | . | . | 9.6 | -9.9 | -0.3 | 10.9
O=C(CSc1nnc(CNC(=O)c2cccc(C(F)(F)F)c2)o1)NC1CCCCC1 | -7.1 | -1.4 | i | 8.4 | 8.8 | -2.7 | 8.8 | -11.6 | -1.2 | -3.2
Cn1cccc1C(=O)NC(=O)COC(=O)c1cc([N+](=O)[O-])ccc1Cl | 1.5 | -14.8 | i | 20.0 | 9.1 | 3.2 | 1.7 | 1.9 | 4.7 | -9.1
CCC(C)(C(=O)NC1CCCC1)N(CC1CCCO1)C(=O)c1ccc2c(c1)OCO2 (stereo not given) | . | 8.6 | . | . | . | . | -4.6 | -18.5 | 1.3 | -6.6
CC(=O)Nc1c(O)nc(SCC(=O)Nc2ccc(C(C)=O)cc2)[nH]c1=O | 4.6 | 9.1 | i | 3.2 | 0.8 | 1.7 | 3.4 | 98.4* | -2.7 | -0.8
CCOC(=O)C1(Cc2cccc(OC)c2)CCCN(Cc2nccn2CC)C1 (stereo not given) | 9.6 | 17.7 | i | -7.8 | -11.4 | 3.7 | -15.5 | -8.6 | 2.3 | -5.2
CCOC(=O)C1=C(C)NC(C)=C(C(=O)OCC)C1c1cn(-c2ccccc2)nc1-c1ccco1 | . | -9.8 | . | . | . | . | -2.5 | . | -0.3 | -0.1
CC(=O)Nn1c(-c2ccccc2)cc2ccccc21 | . | -9.6 | . | . | . | . | 5.9 | . | -4.8 | -1.6
Cc1cc(C(F)(F)F)n2nc(-c3cnn(C)c3C(F)(F)F)c(Br)c2n1 | 1.3 | 2.6 | . | 12.9 | -0.8 | 0.0 | -3.4 | 0.6 | -0.6 | -0.1
O=C(CSc1ccc(-c2ccccn2)nn1)Nc1ccccc1 | -1.1 | 26.9 | i | -24.2 | -33.0 | -7.2 | . | 0.3 | . | -6.0
CC(=O)c1ccccc1-c1csc2ncnc(Sc3nnnn3C)c12 | -3.3 | . | i | -11.4 | -11.7 | -3.3 | . | 3.6 | . | -34.7
O=c1c2ccccc2oc2nc(-c3cccs3)n(CCc3ccccc3)c(=O)c12 | . | 13.5 | . | . | . | . | 2.6 | 14.8 | 3.2 | 0.0
CN(CC(=O)Nc1ccc(Cl)cc1)CC(=O)Nc1cc(Cl)ccc1C#N | 5.8 | -2.0 | i | -38.2* | -16.5* | -2.0* | 3.0 | 1.1 | -0.1 | 2.6
COc1ccc(-n2c(Cn3c(=O)sc4ccccc43)nnc2SC)cc1 | -2.3 | 2.2 | i | 13.5 | 12.0 | 0.8 | -8.5 | -8.6 | -1.7 | -0.3
C=CCOc1ccc(C2=NOC(C(=O)Nc3ccc4c(c3)OCCO4)C2)cc1 (stereo not given) | 1.5 | 9.1 | i | -1.1 | 1.5 | -1.4 | -5.0 | . | 2.1 | 1.7
C#CCNC(=O)C1=C[C@H](C)[C@@H](CCCO)[C@H](OCC)O1 | -2.4&-0.5 | -28.2 | i | 7.5 | -4.1 | 10.4 | -21.8 | -15.6 | ? | -4.1
C=CCn1c(N)cc(=O)nc1SCC(=O)Nc1ccc(C)cc1 | -1.0 | -2.2 | i | 0.3 | 2.2 | 7.0 | 1.0 | 98.6* | -5.1 | -6.7
S=c1[nH]nc(C2CCCCC2)n1/N=C/c1ccccn1 | -1.0 | -7.8 | i | . | . | . | 3.1 | 96.0* | -2.7 | 2.7
O=C(CNC(=O)c1ccccc1F)NCc1ccccn1 | -1.9 | . | i | 4.7 | 4.2 | -1.5 | . | -3.7 | . | 0.2
C=CCN1C(=O)c2ccc(C(=O)N(CC(C)C)c3c(N)n(CCCC)c(=O)[nH]c3=O)cc2C1=O | -0.1 | -3.8 | i | 14.2 | 13.6 | 2.9 | 6.2 | -19.9 | 1.2 | -5.2
COc1cccc(N2CN(CCc3ccccc3)CNC2=S)c1 | -0.6 | . | i | -4.1 | -0.4 | 3.3 | 4.3 | . | 8.7 | -7.0
CN(c1ccccc1)c1nc(-n2ccnc2)nc(-n2ccnc2)n1 | . | 26.1 | . | . | . | . | -14.6 | -5.9 | 0.9 | -2.4
CCC(C)Sc1ccc([C@H]2N[C@@](C)(C(=O)OC)[C@H]3C(=O)N(C)C(=O)[C@@H]23)cc1OC (stereo not given in full) | 0.5 | -14.7 | i | 6.4 | 22.8 | 18.1 | -9.8 | 0.1 | 1.9 | -10.1
COc1ccc(-n2c(C)cc(/C=C3\SC(=O)NC3=O)c2C)cc1 | 1.6 | 13.1 | i | -6.4 | -22.5 | -1.3 | -12.3 | . | 0.1 | .
C/C(=N/NC(=O)CN(c1ccccc1)S(=O)(=O)c1ccccc1)c1ccccc1O | -0.9 | 7.1 | i | -3.0 | -1.0 | -1.5 | 1.8 | . | 2.3 | 109.3*
Cc1cc(C)c(S(=O)(=O)N2CCCCC2)cc1N(C)S(=O)(=O)c1ccc(Cl)cc1 | . | 17.6 | . | . | . | . | 6.1 | -3.2 | -1.4 | 4.4
CC(=O)C(Sc1nc(N(C)C)nc(N(C)C)n1)C(=O)Nc1ccccc1 (stereo not given) | -1.5 | -6.6 | i | -23.3 | -20.3 | -1.9 | 34.3 | 14.6 | -1.7 | -2.9
CC(=O)/C=C1\SC(CC(=O)O)C(=O)N1c1ccccc1 (stereo not given) | . | 15.2 | . | . | . | . | 3.0 | -0.4 | -0.8 | 2.8
Cn1c(=O)[nH]c(=O)c2c1nc(Br)n2CC(O)c1ccccc1 (stereo not given) | . | -17.6 | . | . | . | . | -1.9 | 1.8 | 6.5 | 7.2
CC(C)C(NC(=O)c1ccc(C(C)(C)C)cc1)C(=O)NCC1(N(C)C)CCCCC1 (stereo not given) | 2.1 | -0.7 | i | 5.3 | 4.5 | 0.1 | -6.6 | 2.7 | 0.0 | -20.4
CC1(C)CC(=O)C2=C(C1)OC1=C(C(=O)CC(C)(C)C1)C2(C)C | . | -3.4 | . | . | . | . | -9.3 | -4.6 | 1.9 | -7.1
COCCn1c(SCC(=O)Nc2ccc3c(c2)OCCO3)nnc1-c1ccncc1 | -1.6 | . | i | 3.9 | 12.2 | -0.9 | . | -29.0 | . | -7.0
COc1cc(C2C(C(=O)OC(C)C)=C(C)Nc3ncnn32)cc(OC)c1OC (stereo not given) | -19.2 | -5.4 | i | 4.2 | 7.4 | -2.4 | -3.5 | -24.0 | 3.4 | -2.5
CCCC(=O)Nc1cc(S(=O)(=O)N(CC)CC)ccc1Cl | -4.0 | -1.7 | i | . | . | . | 0.9 | 98.0* | -0.1 | 4.0
O=C(/C=C/NNC(=O)c1ccccc1O)c1ccccc1 | -9.3 | -17.8 | i | -0.6 | -7.7 | -2.5 | 19.2 | 9.8 | -1.3 | 5.1
COC(=O)c1c(NC(=O)c2cccnc2Cl)sc(C(=O)N(C)C)c1C | . | 11.0 | . | . | . | . | 3.2 | -7.8 | -1.9 | -12.5
COc1ccc(-c2nnc(SCC(=O)Nc3ccc(C(=O)O)cc3)n2-c2ccc(Cl)cc2)cc1 | -1.4 | -8.6 | i | -0.7 | -1.3 | -0.8 | 2.5 | -4.0 | 2.1 | -4.2

Screening data from PubChem.
